Source: PubChem
StopGo RLuc = Primary qHTS Assay for Foot and Mouth Disease Virus Antivirals against NCGC Sytravon and CBC Compound Libraries: Renilla Luciferase Signal; Potency, µM (titrated, usually from 57.5 µM), for the others: top-dose signal change, negative = less light; HEK cells with a luciferase reporter of 2A StopGo recoding; actives 0.32% (n = 120,000); active means well fitted falling curve with a large enough effect; inconclusive means small, poorly fitted or top-dose-only effect; inactive means no such curve, though single readings can be large or run the other way; note: nearly all actives have a fitted effect of over 55% in size; overnight with compound
2A firefly = Primary qHTS Assay for Foot and Mouth Disease Virus Antivirals against NCGC Sytravon and CBC Compound Libraries: Firefly Luciferase Signal. AID 1745856, 2022. HEK cells with a luciferase reporter of 2A StopGo recoding. actives 0.23% (n = 120,000). Potency, µM (titrated, usually from 57.5 µM), for inactives: at the highest dose signal change, negative = less light; active = well fitted falling curve with a large enough effect; inconclusive = small, poorly fitted or top-dose-only effect; inactive = no such curve, though single readings can be large or run the other way; note: nearly all actives have a fitted effect of over 60% in size; overnight with compound
* hit, by the source's call; & = joins results of further samples; [ ] = dose if it differs, or a comment. % is set by controls: 0 for no effect and ±100 for the full control effect; potency is the fitted concentration of half-maximal effect.

The first two records (preview)
Screening COc1ccc(-c2cc(-c3ccc4c(c3)NC(=O)CO4)nc3c2COc2ccc(F)cc2-3)cc1 returned StopGo RLuc -16.1% and 2A firefly -17.2%.
`CC1CCC(C(=O)Nc2ccc3ccccc3c2)CC1` (stereo not drawn) gave StopGo RLuc 27.6% and 2A firefly 91.3%[activator].

The list itself (from the top)
Screening COc1ccc(-c2cc(-c3ccc4c(c3)NC(=O)CO4)nc3c2COc2ccc(F)cc2-3)cc1 returned StopGo RLuc -16.1% and 2A firefly -17.2%.
`CC1CCC(C(=O)Nc2ccc3ccccc3c2)CC1` (stereo not drawn) gave StopGo RLuc 27.6% and 2A firefly 91.3%[activator].
Cc1ccc(NC(=O)NC(=O)CN(C)c2ccccc2)c(C)c1 was read as StopGo RLuc 15.4% and 2A firefly 18.7%.
Screening CC(=O)c1c(C)c(C)cc(C)c1C returned StopGo RLuc -5.5% and 2A firefly -4.4%.
For O=C(NCCc1c[nH]c2ccc(Cl)cc12)c1c(F)cccc1F the results were StopGo RLuc 10.1% and 2A firefly 0.3%.
CCN(Cc1ccccc1)Cc1c(O)ccc2c(=O)c(-c3ccc(Cl)cc3)coc12 was read as StopGo RLuc -4.6% and 2A firefly 5.4%.
Screening O=C(NCc1cccs1)c1ccccc1-c1ccccc1 returned StopGo RLuc 45.2%[activator] and 2A firefly 9.9%.
Cc1ccc(NC(=O)Cn2c(=O)n(Cc3ccco3)c(=O)c3ccccc32)cc1 was read as StopGo RLuc 1.9% and 2A firefly 1.9%.
For Cn1c(Sc2ncc(C(F)(F)F)cc2Cl)nnc1-c1ccccc1 the results were StopGo RLuc 42.7%[activator] and 2A firefly 8.9%.
COC(=O)c1ccc(NC(=O)CSc2cn(CC(=O)N3CCCCC3)c3ccccc23)cc1 was read as StopGo RLuc 46.7%[activator] and 2A firefly -3.8%.
O=C(O)C(c1c[nH]c2cc(F)ccc12)N1CCN(C2=Nc3ccccc3Oc3ccccc32)CC1 (stereo not drawn) was read as StopGo RLuc -17.3% and 2A firefly -9.7%.
`CC(C)OCCCNC(=O)CCc1ncc(-c2ccc(F)cc2F)o1` gave StopGo RLuc -8.2% and 2A firefly 2.0%.
CCOC(=O)c1cc(-c2ccc(F)cc2)n(CCC(=O)Nc2nc3ccc(OC)cc3s2)c1C was read as StopGo RLuc -6.4% and 2A firefly -4.3%.
Screening CC(C)Cn1c(=O)c2ccccc2n2c(SCC(=O)Nc3ccccc3F)nnc12 returned StopGo RLuc -9.8% and 2A firefly -3.2%.
`COc1ccc(Cl)cc1NC(=O)COc1ccccc1F` gave StopGo RLuc -1.4% and 2A firefly 99.5%[activator].
For O=C(O)Cn1c(=O)c2c3c(sc2n(Cc2ccc(F)cc2)c1=O)CCC3 the results were StopGo RLuc 2.6% and 2A firefly -6.9%.
Screening O=C(Cn1cc(S(=O)(=O)N2CCCC2)c(S(=O)(=O)N2CCCC2)c1)Nc1ccc(F)cc1 returned StopGo RLuc 21.2% and 2A firefly -12.4%.
`CCCCCc1ccc(-c2ccc(C(=O)Oc3ccc(CC)cc3)cc2)nc1` gave StopGo RLuc 30.3% and 2A firefly 111.6%[activator].
For CN(C(=O)c1ccc2c(c1)C(=O)c1ccccc1-2)C1CCCc2ccccc21 (stereo not drawn) the results were StopGo RLuc inconclusive and 2A firefly 8.9%.
Screening CCC(=O)Nc1c(C(=O)N2CCN(c3ccc(F)cc3)CC2)oc2ccccc12 returned StopGo RLuc 306.7%[activator] and 2A firefly 12.4%.
Cc1[nH]c2ccc(C(=O)NCC(=O)NC(C)C)cc2c1C was read as StopGo RLuc 3.6% and 2A firefly 17.9%.
CN(C)S(=O)(=O)c1ccc2c(c1)N(CC(=O)NCc1ccccc1)C(=O)C1CCCCN21 (stereo not drawn) was read as StopGo RLuc -5.3% and 2A firefly -10.2%.
Cc1ccc(Cl)cc1NC(=O)CC1SCCNC1=O (stereo not drawn) was read as StopGo RLuc 2.2% and 2A firefly -1.9%.
Screening Cc1ccc(C)c(N2CCN(c3cnn(-c4nc5ccccc5s4)c(=O)c3Cl)CC2)c1 returned StopGo RLuc -1.9% and 2A firefly 0.0%.
For COc1ccc(CCNC(=O)C(=O)NCC(c2cccs2)S(=O)(=O)c2ccc(C)cc2)cc1 (stereo not drawn) the results were StopGo RLuc 16.6% and 2A firefly 8.6%.
`COC(=O)NCCC(c1ccccc1)c1ccccc1` gave StopGo RLuc 17.2% and 2A firefly 14.0%.
Screening Fc1ccc(NC(=S)N(Cc2ccccc2)Cc2ccccc2)cc1 returned StopGo RLuc 86.8%[activator] and 2A firefly -8.8%.
Screening CCOc1cc2ccccc2cc1C(=O)N1CCN(CC(=O)Nc2cccc(F)c2)CC1 returned StopGo RLuc -4.5% and 2A firefly -1.1%.
CCc1c(C)sc(NC(=O)/C=C/c2c(F)cccc2Cl)c1C#N was read as StopGo RLuc 5.0% and 2A firefly 10.9%.
O=C(O)CCc1ccc(Cl)cc1Cl was read as StopGo RLuc 1.0% and 2A firefly 12.3%.
For COc1ccc(OC)c(-c2nc(Nc3ccccc3C)sc2CC(=O)O)c1 the results were StopGo RLuc 6.0% and 2A firefly 91.6%[activator].
`Cc1ccc2nc(-c3ccc(C)c(C)c3)cc(C(=O)O)c2c1` gave StopGo RLuc -24.1% and 2A firefly 0.0%.
`CCCCNC(=S)Nc1cccc(C(F)(F)F)c1` gave StopGo RLuc 83.3%[activator] and 2A firefly -21.9%.
`O=C(NCCCc1nc2ccccc2n1Cc1c(F)cccc1Cl)C1CCCCC1` gave StopGo RLuc 3.5% and 2A firefly 3.2%.
Screening COc1ccc(NC(=O)c2cc3ccccc3[nH]2)cc1 returned StopGo RLuc 23.3% and 2A firefly 204.1%[activator].
For CCn1c(SCc2ccc(F)cc2Cl)nc(=O)c2c(C(=O)OC)cc(C3CC3)nc21 the results were StopGo RLuc -19.4% and 2A firefly -25.0%.
`N#Cc1ccccc1Oc1ccc(OCc2ccccc2)cc1` gave StopGo RLuc 35.4% and 2A firefly 239.8%[activator].
Screening O=S(=O)(NCc1ccc(Cl)cc1)c1ccc2[nH]c3c(c2c1)CCCC3 returned StopGo RLuc 175.1%[activator] and 2A firefly -2.3%.
For CC(=O)c1ccc(OCc2cccc3ccccc23)cc1 the results were StopGo RLuc 7.2% and 2A firefly 73.2%[activator].
For CN(C(=O)CCc1ncc(-c2ccccc2)o1)C1CCS(=O)(=O)C1 (stereo not drawn) the results were StopGo RLuc -9.0% and 2A firefly 0.0%.
Screening Cc1ccc(NC(=O)c2c(NC(=O)Cc3ccccc3)sc3c2CCCC3)cc1 returned StopGo RLuc 3.2% and 2A firefly -8.5%.
`COc1ccc(C(=O)NC2(C(F)(F)F)C(=O)NC(C)=C2C#N)cc1OC` (stereo not drawn) gave StopGo RLuc 10.7%&-2.1% and 2A firefly 0.6%&-7.3%.
Screening O=C(OCc1cc(=O)n2nc(-c3cccs3)sc2n1)c1ccc(F)cc1 returned StopGo RLuc -7.2% and 2A firefly -8.3%.
For CC(C)(C)c1ccc(C(=O)Nc2sc3c(c2C#N)CCC(C(C)(C)C)C3)cc1 (stereo not drawn) the results were StopGo RLuc -9.2% and 2A firefly -12.7%.
`Cc1ccc(-n2c(C)nnc2SCC(=O)Nc2c(C#N)c(C)c(C)n2Cc2ccccc2)cc1` gave StopGo RLuc 0.0% and 2A firefly -9.0%.

Reprinted at random: 3 compounds from above.
Screening COc1ccc(-c2cc(-c3ccc4c(c3)NC(=O)CO4)nc3c2COc2ccc(F)cc2-3)cc1 returned StopGo RLuc -16.1% and 2A firefly -17.2%.
Screening O=C(NCc1cccs1)c1ccccc1-c1ccccc1 returned StopGo RLuc 45.2%[activator] and 2A firefly 9.9%.
O=C(O)CCc1ccc(Cl)cc1Cl was read as StopGo RLuc 1.0% and 2A firefly 12.3%.

Remaining list, next part
For COc1cc(CC2CC(c3cccc(Cl)c3)=NO2)c(OC)c2c1OCO2 (stereo not drawn) the results were StopGo RLuc 18.1% and 2A firefly 3.2%.
Screening O=C(O)Cc1cccc2cccnc12 returned StopGo RLuc 8.6% and 2A firefly 5.1%.
Screening CCOc1ccccc1NC(=O)CCc1c(C)nc2c(c(C)nn2-c2ccccc2)c1C returned StopGo RLuc -11.2% and 2A firefly -15.8%.
Screening CC(=O)c1cccc(NC(=O)CCc2c(C)nc3c(c(C)nn3-c3ccccc3)c2C)c1 returned StopGo RLuc -2.1% and 2A firefly -17.6%.
CC(C(=O)Nc1ccccc1Cl)n1nc(-c2ccccc2)ccc1=O (stereo not drawn) was read as StopGo RLuc 11.3% and 2A firefly 15.4%.
`CC(=O)OCc1cnc(C)c2oc(=O)c(-c3nc(-c4ccccc4)no3)cc12` gave StopGo RLuc -10.2% and 2A firefly 35.1%[activator].
For CCOc1ccc(NC(=O)CSC2=C(C#N)C(c3ccc(Cl)cc3)C3=C(CCCC3=O)N2)cc1 (stereo not drawn) the results were StopGo RLuc -19.4% and 2A firefly -11.5%.
NC(=O)c1c(NC(=O)CS(=O)(=O)c2ccc(Cl)cc2)sc2c1CCCCC2 was read as StopGo RLuc 21.8% and 2A firefly 45.6%[activator].
For COC(=O)c1ccc(Cn2cnc3nc4c(cc3c2=O)CCCC4)cc1 the results were StopGo RLuc 7.2% and 2A firefly -6.1%.
Cc1cc(F)ccc1NC(=O)c1cc(S(=O)(=O)N2CCc3ccccc32)cn1C was read as StopGo RLuc 27.4% and 2A firefly -13.9%.
For CCc1nn(CC(=O)NCCCc2ccccc2)c(=O)c2cc3ccccc3n12 the results were StopGo RLuc -9.0% and 2A firefly -10.6%.
Screening CCN(CC)C(=O)c1cccc(NC(=O)c2cc(=O)c3cc(C)ccc3o2)c1 returned StopGo RLuc -6.4% and 2A firefly -6.9%.
`Cc1ccc(-c2nc(CN3CCN(C(=O)c4ccco4)CC3)c(C)o2)cc1` gave StopGo RLuc -8.0% and 2A firefly 2.7%.
Screening CCOc1ccc(N(CC(=O)OC)S(=O)(=O)c2ccc3c(c2)n(C)c(=O)c(=O)n3C)cc1 returned StopGo RLuc -1.6% and 2A firefly -16.3%.
For Cc1ccc(-c2ccc(C=O)o2)cc1Cl the results were StopGo RLuc inconclusive and 2A firefly 18.2%.
`Cc1cccc(C)c1NC(=O)CN(C)C(=O)c1cccc(S(=O)(=O)NCC2CCCO2)c1` (stereo not drawn) gave StopGo RLuc 3.3% and 2A firefly -7.9%.
For O=C(CNC(=O)c1ccc(Oc2ccccc2)cc1)NNC(=O)CSc1cccc2cccnc12 the results were StopGo RLuc -0.8% and 2A firefly -4.2%.
`Cc1ccc(S(=O)(=O)N2CCN(C(=O)CN3CCOCC3)C2c2ccccc2)cc1` (stereo not drawn) gave StopGo RLuc 50.1%[activator] and 2A firefly 0.0%.
`Cc1ccc(C(=O)Nc2cccc(-c3nc4ccccc4s3)c2C)cc1` gave StopGo RLuc 9.2% and 2A firefly 0.0%.
CCn1c(SCC(=O)Nc2ccc(C(C)=O)cc2)nnc1-c1cc2ccccc2o1 was read as StopGo RLuc 2.7% and 2A firefly 14.2%.
For COc1ccccc1CNC(=O)c1sc(NC2CC2)nc1C the results were StopGo RLuc 9.1% and 2A firefly 143.5%[activator].
For Cc1ccc(CNC(=O)c2ccccn2)s1 the results were StopGo RLuc 17.7% and 2A firefly 0.0%.
For O=C(COc1ccccc1)Nc1ccc2nc(SCC(=O)N3CCCC3)sc2c1 the results were StopGo RLuc 16.9% and 2A firefly 3.8%.
For CCCCc1ccc(-n2nnc(C(=O)NC3CCS(=O)(=O)C3)c2C)cc1 (stereo not drawn) the results were StopGo RLuc -14.9% and 2A firefly 20.9%.
Screening Cc1ccc(OCCSc2nc3ccc(NC(=O)c4ccc5c(c4)OCO5)cc3s2)cc1 returned StopGo RLuc -8.7% and 2A firefly -5.0%.
Screening Cc1ccc(NC(c2nnc(-c3ccccc3)o2)c2ccccc2F)c([N+](=O)[O-])c1 (stereo not drawn) returned StopGo RLuc -10.6% and 2A firefly 186.7%[activator].
`N#Cc1ccc(-c2ccc3c(c2)OCO3)nc1SCC(=O)Nc1ccccc1Cl` gave StopGo RLuc -4.5% and 2A firefly 4.9%.
Cc1cc(=O)oc2cc(OCC(=O)N3CCN(C(=O)C4COc5ccccc5O4)CC3)ccc12 (stereo not drawn) was read as StopGo RLuc 15.0% and 2A firefly 0.0%.
For Cc1ccc(NC(=O)CSc2nccn2-c2ccccc2)cc1 the results were StopGo RLuc 4.3% and 2A firefly 76.3%[activator].
For Cc1c(Cl)cccc1NC(=O)CCc1c[nH]c2ccccc12 the results were StopGo RLuc -17.4% and 2A firefly 20.4%.
`N#Cc1nc(-c2cccc3ccccc23)oc1N1CCN(Cc2ccccc2)CC1` gave StopGo RLuc -1.8% and 2A firefly -2.5%.
Screening CCOC(=O)c1cccc(NC(=O)CCc2c(C)nn(-c3ccc(N4CCCCC4)nn3)c2C)c1 returned StopGo RLuc -19.9% and 2A firefly 58.9%[activator].
For CCOC(=O)c1cc2cc(C(C)CC)ccc2[nH]1 (stereo not drawn) the results were StopGo RLuc -1.5%[1.06 µM] and 2A firefly 57.1%[activator].
Screening CC(C)C(=O)N1CCN(C(=O)c2cc(C(C)C)nc3ccccc23)CC1 returned StopGo RLuc -6.1% and 2A firefly -7.8%.
Screening CCCCCNc1nc2c(c(=O)n(Cc3ccccc3Cl)c(=O)n2C)n1C returned StopGo RLuc 3.6% and 2A firefly 3.6%.
Screening Cc1cccc(C(=O)Nc2c(C)ccc3nsnc23)c1 returned StopGo RLuc 9.0% and 2A firefly -1.7%.
For Cc1nnc(SCc2ccccc2Cl)c2cc3sccc3n12 the results were StopGo RLuc inconclusive and 2A firefly 0.0%.
